Prx2 Sm inh: inhibitors of Schistosoma mansoni peroxiredoxin 2 | S. mansoni Prx2 activity coupled to TGR/GSH (TGR is thioredoxin glutathione reductase), NADPH fluorescence loss, qHTS; some inactives read as strong as hits | Potency, µM | 65,000 tested, 0.07% active | AID 448; active means full or partial inhibition curve with a strong effect at the top dose; inconclusive means weaker partial or single-point curve; inactive means no accepted curve; further: series up to 57 µM; many of its hits are not listed in these tables
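Coupled assay in which S. mansoni TGR passes NADPH reducing equivalents via glutathione to Prx2, which reduces H2O2. Compounds were preincubated 15 min at room temperature with 25 nM TGR/50 nM Prx2 mix. Kinetic NADPH fluorescence loss (ex 365/em 450 nm) was monitored.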
LT uptake inh: blocks cellular internalization of anthrax lethal toxin. Cells, anthrax lethal toxin internalization, FRET ratio (460/530). Potency, µM (series often up to 40 µM), inactives show at the top dose activity change, negative = inhibition, most hits filed as inhibitors. 70,000 tested, 0.67% active; active = well fitted falling ratio curve with the 530 nm signal flat; inconclusive = other ratio curves, or a change in one channel alone; inactive = flat curves in the ratio and both channels; the % refers to the ratio; further: on the % scale 0 is the no-effect control and ±100 the full control effect; nearly all actives have a fitted effect of over 50% in size; tested in ME-180 cells; beta-lactamase reporter
* hit, by the source's call; ? = inconclusive; nt = not tested or not shown; [ ] = remark or other dose. Potency means the concentration at half of the fitted maximal effect.

SMILES	Prx2 Sm inh	LT uptake inh
O=C(Nc1ccc(N2CCN(Cc3ccccc3Cl)CC2)cc1)c1cccnc1	>57	24%
CCN(CC)S(=O)(=O)N1CCC(C(=O)NCC2COc3ccccc3O2)CC1 (stereo not given)	>57	?
O=C(NC1CCCCCC1)c1cccs1	nt	0%
CC(=O)CCc1ccc2oc(C(=O)O)c(C)c2c1	>57	-3%
CC(C)C(NS(=O)(=O)c1cccs1)C(=O)N1CCc2ccccc2C1 (stereo not given)	>57	-5%
CCCc1nc2oc3c(NCCOCCO)ncnc3c2c2c1COC(C)(C)C2	>57	-4%
Cc1cc(NC(=O)C2CC(c3cccc(Br)c3)=NO2)no1 (stereo not given)	>57	6%
Cn1c(C(=O)NCC2CCCO2)cc2c(=O)n(C)c3ccccc3c21 (stereo not given)	>57	5%
O=c1oc2ccccc2c(O)c1CN1CCCCC1	>57	3%
CC1CCN(S(=O)(=O)c2ccc3c(c2)c(=O)c(C(=O)NC2CCCC2)cn3C)CC1	>57	-13%
O=C(Cn1nc(Cc2cccnc2)c2ccccc2c1=O)NCC1CCCO1 (stereo not given)	>57	-4%
CCOC(=O)CCCCC(=O)c1[nH]c(=O)[nH]c1Cn1ccnc1	>57	-6%
CCn1c(SCC(=O)O)nnc1C1CCCCC1	>57	-4%
Cc1ccc2c(c1)cc(CN(Cc1ccc3c(c1)OCO3)C(=O)c1cnccn1)c1nnnn12	>57	-14%
CC(C)OC(=O)Nc1ccc(Oc2c(F)c(F)c(F)c(F)c2F)cc1	>57	nt
Cc1noc(C)c1CSc1nnc2cc(C)c3ccccc3n12	>57	-2%
COc1cccc(C(=O)NC2=NCCS2)c1	>57	6%
CCOC(=O)C(C)(C)[C@H](O)C(C)C	>57	?
Cc1ccc(S(=O)(=O)Cc2ccc(C(=O)N3CCCC3)o2)cc1	>57	-5%
CCOC(=O)c1ccc(CNC(=O)c2n[nH]c(=O)c3ccccc23)o1	>57	-16%
O=c1[nH]c(=O)n(CCc2ccc(F)cc2)c(O)c1C=NCCCn1ccnc1	>57	?
CCOC(=O)C1CCCN(C(=O)c2c(-c3ccccc3Cl)noc2C)C1 (stereo not given)	>57	0%
CCS(=O)(=O)N1CCCC(C(=O)NCCCN2CCCC2=O)C1 (stereo not given)	>57	2%
COc1ccc(CCN2CC(O)=C(c3nc4ccccc4c(=O)[nH]3)C2=N)cc1OC	>57	nt
COc1cc(C(=O)NC2CCN(Cc3nnnn3Cc3cccs3)CC2)cc(OC)c1OC	>57	-1%
N#Cc1sc2nc3c(c(-c4cccnc4)c2c1N)CCC3	>57	-11%
N#Cc1cccc(NC(=O)N2CC[C@@]3(CCCN(C(=O)c4cc(C(F)(F)F)cc(C(F)(F)F)c4)C3)C2)c1	>57	-7%
CC(C)=NOC[C@@H](C)[C@H](OCc1ccccc1)C(C)C	nt	-4%[8 µM]
COC(=O)CCC(=O)Nc1cccc(Br)c1	>57	nt
CCOc1ccccc1C1C(C#N)=C(N)Nc2onc(-c3ccccc3)c21 (stereo not given)	>57	0%
O=C(CSc1nnc(-c2ccccc2)n1Cc1ccccc1)N1CCCC1	>57	-2%
COc1ccccc1N1CCN(C(=O)c2ccc(S(=O)(=O)N3CCCCCC3)cc2)CC1	>57	-4%
O=C(c1cc(-c2ccncc2)nc2ccc(Br)cc12)N1CCN(c2ccccn2)CC1	>57	nt
Cc1csc(NC(=O)CSc2nnc(-c3ccncc3)n2C)n1	>57	-14%
COC(=O)COc1ccc(S(=O)(=O)Nc2ccc(C(N)=O)cc2)cc1	>57	5%
Cc1ccc(S(=O)(=O)Cn2nnnc2C(C(C)C)N2CCN(Cc3ccco3)CC2)cc1 (stereo not given)	>57	-12%
O=C(NCCCN1CCc2ccccc2C1)C1CCN(c2nnc(-n3cccc3)s2)CC1	>57	-9%
O=c1[nH]c2cc(Cl)ccc2c(O)c1-c1cccc(Oc2ccccc2)c1	>57	4%
CCCN=C(N)NCCC[C@H](N)C(=O)O	>57	5%
COc1ccc(OC)c(NC(=O)CCN2CCCCC2)c1	>57	9%
COc1cccc(N(CC(=O)Nc2cccc(N(C)S(C)(=O)=O)c2)S(C)(=O)=O)c1	>57	-5%
CNC(=O)[C@@]1(Cc2ccccc2)C=C[C@@H](C)N1C(=O)OC	nt	-6%
Cn1c(=O)c2cc(S(=O)(=O)NC(C(=O)N3CCCCCC3)c3ccccc3)ccc2n(C)c1=O (stereo not given)	>57	-4%
CCCCC=O	nt	8%
N#CC[n+]1cc(-c2ccc(Cl)cc2)n2c1CCC2	>57	5%
CCCCNC(=O)OC1CCS(=O)(=O)C1 (stereo not given)	>57	-18%
CCc1ccc(C2CC(c3ccccc3C)n3nc(N)nc3N2)cc1 (stereo not given)	>57	-8%
O=C1c2ccccc2C(=O)N1CCCCn1c(=O)oc2ccccc21	nt	3%
COc1cccc(CC(C(=O)Nc2cc(C)ccc2C)c2nn[nH]n2)c1OC (stereo not given)	>57	8%
COC(=O)CCN(C1CCCCC1)S(=O)(=O)c1ccc(S(=O)(=O)N2CCCCC2)cc1	>57	2%
CCn1c(SCCOc2ccc(OC)cc2)nnc1C(CO)NC(=O)c1ccc(OC)cc1 (stereo not given)	>57	?
COc1cccc(Cn2c(=O)c(-c3cccs3)nc3cnc(OCc4ccccc4)nc32)c1	>57	?
Cc1nc2ccccc2n2c(O)c(CC(=O)O)cc12	>57	-10%
CC1=C(Sc2ccccn2)C(=O)NC(C)(C)C1	>57	12%
O=CNCC(=O)NC1CCCCCC1	>57	1%
CCSc1nc2ccccc2n1CC(=O)N1CCCCC1	>57	2%
O=C(C1CCN(Cc2ccc(OCc3ccccc3)cc2)CC1)N1CCCC1	>57	-5%
CCN(CC)S(=O)(=O)c1ccc(Cl)c(C(=O)NC2CCCC2)c1	>57	-2%
COc1ccccc1NC(=O)Cn1cnc2c(cnn2-c2ccc(C)c(C)c2)c1=O	>57	-11%
O=C(NCc1ccccc1)C1CCCN1S(=O)(=O)c1cccc2cccnc12 (stereo not given)	>57	-14%
(more compounds)
SMILES	Prx2 Sm inh	LT uptake inh
CCOC(=O)CN1C2=NCCN2c2ccccc21	>57	0%
Cc1noc(C)c1-c1cc(NCCN2CCOCC2)ncn1	>57	?
COc1ccc(C2(C(=O)Nc3ccc(C(=O)O)cc3)CCOCC2)cc1	>57	-9%
Cc1ccc(OCCCC(=O)N2CCOCC2)c(C)c1	>57	1%
Cc1cc(S(=O)(=O)N2CCN(Cc3ccccc3)CC2)c(C)s1	>57	-6%
O=C(CSc1ncccc1-c1nc2ccccc2[nH]1)NCc1ccco1	>57	?
COc1ccc(-n2nnnc2S(=O)(=O)CC(=O)N2CCCCC2)cc1	?	3.2µM*
CC(/C=N/n1cnnc1)=C\c1ccco1	>57	nt
CCCc1cc(=O)oc2cc(C)cc(OCC(=O)O)c12	>57	-2%
COC(=O)[C@@H]1C[C@H]1[C@@H](NC(=O)c1cc(C)on1)c1ccccc1	>57	7%
COc1ccc(C2C(C#N)=C(N)Oc3n[nH]c(-c4ccccn4)c32)c(OC)c1OC (stereo not given)	>57	?
Cc1csc(/C(C#N)=N/O)n1	>57	-6%
CCOC(=O)C1=C(C)NC(=O)N[C@@H]1c1coc2cc(C)cc(C)c2c1=O	>57	-7%[8 µM]
CCSc1nnc(N2C(=O)CC(c3ccsc3)C3=C2CC(C)(C)CC3=O)s1 (stereo not given)	>57	-15%
CCC(=O)Nc1cccc(NC(=O)CSc2nnnn2C2CCCC2)c1	>57	3%
CCOc1ccc(C(=O)c2ccncc2)cc1	>57	0%
CC(=O)CCc1ccc(OCCCCn2cncn2)cc1	>57	7%
Cn1cc(/C=N/n2cnc3sc4c(c3c2=O)CCCC4)c2ccccc21	>57	-7%
Cc1ccc(-n2nc(C)c3c2OC(N)=C(C#N)C3c2cccs2)cc1 (stereo not given)	>57	15%
NNC(=O)CCSc1ccccc1	>57	4%[8 µM]
CCCCCOC(=O)C1C2C=CC3(CN(c4ccccc4C)C(=O)C13)O2 (stereo not given)	>57	8%
CC(=O)c1cccc(NC(=O)COc2ccc(S(=O)(=O)N3CCCCC3)cc2)c1	>57	-6%
CSc1ccccc1-n1nnnc1SCc1ccccc1	>57	-33%
Clc1cccc(-c2nc3nc4ccccc4nc3n2Cc2ccco2)c1	>57	?
CCN1CCN(C(c2cccs2)C(C)NC(=O)c2ccccc2F)CC1 (stereo not given)	>57	nt
NC(N)=NCCCC(=O)O	>57	0%[8 µM]
COC(=O)N1CCC2(CCCN(c3ccc(-c4ccccc4)cc3)C2)CC1	>57	-8%
O=C(Nc1cnccn1)c1ccncc1	>57	-3%
O=C(CSC1=NCCS1)NC1CCCCC1	>57	-10%
CCOC(=O)CCc1c(C)c2ccc(OC(C)C(=O)OCC)c(C)c2oc1=O (stereo not given)	>57	-6%
N[C@@H](Cc1ccccc1)P(=O)(O)O	>57	-14%[8 µM]
COc1ccccc1C(=O)Nc1c2c(nn1-c1cccc(C)c1C)CS(=O)C2 (stereo not given)	>57	3%
O=c1nc2c(-c3ccccc3F)n[nH]n2c2ccccc12	>57	5%
O=S1(=O)N=C(Oc2ccccc2)c2ccccc21	nt	-11%
Cc1[nH]c(=O)[nH]c(=O)c1CSc1nnc([C@@H](NC(=O)OC(C)(C)C)C(C)C)o1	>57	2%
CN(C)c1ccc(P(=O)(OCc2ccccc2)C(O)c2ccncc2)cc1 (stereo not given)	>57	?
C=CC1CO1 (stereo not given)	nt	-3%
COc1ccc(NS(=O)(=O)c2ccc(I)cc2)cc1N1CCN(C)CC1	>57	-23%
O=C(Nc1ccc(Br)cn1)c1ccc2nccnc2c1	>57	nt
O=S(=O)(NC1CCc2ccccc21)c1ccc(S(=O)(=O)N2CCCC2)cc1 (stereo not given)	>57	?
Cc1cc(S(=O)(=O)N2CCCC2)ccc1OCC(=O)NCc1ccco1	>57	-13%
COCc1cc(C)nc(SCC(=O)Nc2cc3c(cc2C#N)OCO3)c1C#N	>57	-1%
COC(=O)c1ccccc1NS(=O)(=O)c1cn(C)c(=O)n(C)c1=O	>57	?
O=C(CSc1nnc(CNC(=O)c2cccs2)o1)Nc1ccc2c(c1)OCO2	>57	1%
CCOc1ccc(C(=S)N2CCOCC2)cc1	nt	7%
CC1CCc2nn(CC(=O)NC3CCCC3)cc2C1 (stereo not given)	>57	-4%
O=c1oc(-c2cccs2)nc2c1cnn2-c1ccccc1	>57	-10%
CCOC(=O)C1CCCN(CCCc2ccccc2)C1 (stereo not given)	>57	8%
COc1cc(OC)cc(OCC(O)Cn2cnc3cc(C)c(C)cc32)c1 (stereo not given)	?	-14%
COC(=O)CN1CN(c2ccccc2)C2(CCN(Cc3ccc4ccccc4c3)CC2)C1=O	>57	?
CCOc1ccc(-c2noc(CCC(=O)O)n2)cc1	>57	-1%
O=C(C1CCCCC1)N1CCN=C1SCc1cccnc1	>57	2%
COC(=O)[C@@H](N)Cc1ccc(O)c(O)c1	>57	1%
CC1(C)Cc2ccccc2-c2nnc(-c3cccnc3)n21	>57	-3%
COc1ccccc1S(=O)Cc1ccc(C(=O)O)o1 (stereo not given)	>57	-1%
COc1ccc(Cn2nnnc2C(C(C)C)N2CCc3ccccc32)cc1 (stereo not given)	>57	?
Nc1cccc(-n2nncc2-c2ccccc2)c1	>57	10%
O=C(c1csnn1)N1CCC2(CCCN(Cc3ccccc3)C2)CC1	>57	-3%

Some of the entries above in a different format:
smiles,Prx2 Sm inh,LT uptake inh
CCOC(=O)CN1C2=NCCN2c2ccccc21,>57,0%
Cc1noc(C)c1-c1cc(NCCN2CCOCC2)ncn1,>57,?
COc1ccc(C2(C(=O)Nc3ccc(C(=O)O)cc3)CCOCC2)cc1,>57,-9%
Cc1ccc(OCCCC(=O)N2CCOCC2)c(C)c1,>57,1%
Cc1cc(S(=O)(=O)N2CCN(Cc3ccccc3)CC2)c(C)s1,>57,-6%
O=C(CSc1ncccc1-c1nc2ccccc2[nH]1)NCc1ccco1,>57,?
COc1ccc(-n2nnnc2S(=O)(=O)CC(=O)N2CCCCC2)cc1,?,3.2µM*
CC(/C=N/n1cnnc1)=C\c1ccco1,>57,nt
CCCc1cc(=O)oc2cc(C)cc(OCC(=O)O)c12,>57,-2%
COC(=O)[C@@H]1C[C@H]1[C@@H](NC(=O)c1cc(C)on1)c1ccccc1,>57,7%
COc1ccc(C2C(C#N)=C(N)Oc3n[nH]c(-c4ccccn4)c32)c(OC)c1OC (stereo not given),>57,?
Cc1csc(/C(C#N)=N/O)n1,>57,-6%
CCOC(=O)C1=C(C)NC(=O)N[C@@H]1c1coc2cc(C)cc(C)c2c1=O,>57,-7%[8 µM]
CCSc1nnc(N2C(=O)CC(c3ccsc3)C3=C2CC(C)(C)CC3=O)s1 (stereo not given),>57,-15%
CCC(=O)Nc1cccc(NC(=O)CSc2nnnn2C2CCCC2)c1,>57,3%
CCOc1ccc(C(=O)c2ccncc2)cc1,>57,0%
CC(=O)CCc1ccc(OCCCCn2cncn2)cc1,>57,7%
Cn1cc(/C=N/n2cnc3sc4c(c3c2=O)CCCC4)c2ccccc21,>57,-7%
Cc1ccc(-n2nc(C)c3c2OC(N)=C(C#N)C3c2cccs2)cc1 (stereo not given),>57,15%
NNC(=O)CCSc1ccccc1,>57,4%[8 µM]
CCCCCOC(=O)C1C2C=CC3(CN(c4ccccc4C)C(=O)C13)O2 (stereo not given),>57,8%

Some of these compounds in order of length of the SMILES, descending:
SMILES	Prx2 Sm inh	LT uptake inh
CC1(C)Cc2ccccc2-c2nnc(-c3cccnc3)n21	>57	-3%
O=c1oc(-c2cccs2)nc2c1cnn2-c1ccccc1	>57	-10%
COc1ccccc1S(=O)Cc1ccc(C(=O)O)o1 (stereo not given)	>57	-1%

These rows are one share of the data; the hit share may differ from the screen's.
